Compound activity from PubChem.
NS1 function inh: inhibitors of influenza NS1 protein function; S. cerevisiae slowed by influenza A NS1, growth recovery by OD600; Potency, µM (titrated, usually from 46.1 µM), without a hit: at the highest dose activity, positive = more growth; 0.4% of 270,000 active; further: actives are rising curves; nearly all actives have a fitted effect of over 50% in size
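OD600 was taken as the measure of yeast growth restored by compound in an NS1-expressing S. cerevisiae strain. Cells had been washed out of glucose medium and diluted 1:100 into galactose -URA medium, pH 6.0.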
Cruzain noTriton: cruzain (T. cruzi) inhibition without detergent; P25779; purified cruzain, Z-FR-AMC fluorescence, no detergent; Potency, µM, inactives show max response, negative = inhibition, most hits filed as inhibitors; 2.3% of 200,000 active; AID 1476; active means well fitted curve in the direction sought with a large enough effect; inconclusive means small, poorly fitted or top-dose-only effect, or another doubt; inactive means no such curve, though single readings can be large; an effect the other way counts as inactive or inconclusive;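 further: plate controls were enzyme without inhibitor for no effect and buffer without enzyme for full effect; nearly all actives have a fitted effect of over 40% in size; top concentration of the series not given in the record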
Target sequence (P25779 123-467 limits assumed): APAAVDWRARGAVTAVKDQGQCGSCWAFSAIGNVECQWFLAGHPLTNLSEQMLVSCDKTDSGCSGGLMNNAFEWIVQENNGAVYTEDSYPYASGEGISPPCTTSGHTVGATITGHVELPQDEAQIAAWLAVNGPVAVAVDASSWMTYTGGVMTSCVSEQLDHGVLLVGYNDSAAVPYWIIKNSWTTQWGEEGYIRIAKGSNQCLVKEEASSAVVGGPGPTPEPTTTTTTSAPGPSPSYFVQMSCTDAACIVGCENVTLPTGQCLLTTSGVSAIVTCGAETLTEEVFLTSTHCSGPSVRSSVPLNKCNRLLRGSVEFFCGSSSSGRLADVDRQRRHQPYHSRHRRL
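Detergent-free condition (0.00005% Triton X-100) in acetate buffer pH 5.5 with DTT. 1.5 nM enzyme and compound were pre-mixed 15 min, then 2 uM Z-FR-AMC substrate added; reaction progress from fluorescence change between first and third reads (60 s).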
RE007 growth inh: less growth of the S. pombe RE007 Vpr strain | S. pombe RE007 Vpr strain, BacTiter-Glo ATP luminescence, 24 h; control for the full effect not named in the record | Potency, µM (top dose mostly 92.2 µM), for inactives: top-dose activity change, negative = less growth | 0.21% of 360,000 active; active = well fitted falling curve with a large enough effect; inconclusive = small, poorly fitted or top-dose-only effect; inactive = no such curve, though single readings can be large or run the other way;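 further: on the % scale 0 is the no-effect control and ±100 the full control effect; nearly all actives have a fitted effect of over 50% in size; the assay follows cell death caused by Vpr and the record does not say whether a fall means rescue or toxicity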
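Fission yeast RE007 carrying one integrated HIV-1 vpr copy, seeded at OD 0.01 in PMG+AL medium with 23 nL pinned compound. Grown 24 h at 30 degrees; viability read by BacTiter-Glo luminescence after 5 min.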
Cruzain inh Det: blocks cruzain activity in presence of Triton detergent; P25779; purified cruzain, Z-FR-AMC fluorescence, 0.01% Triton; 0.43% of 200,000 active; Potency, µM, for inactives: max response, negative = inhibition, most hits filed as inhibitors; active means well fitted curve in the direction sought with a large enough effect; inconclusive means small, poorly fitted or top-dose-only effect, or another doubt; inactive means no such curve, though single readings can be large; an effect the other way counts as inactive or inconclusive;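 further: plate controls were neutral wells for no effect and buffer without enzyme for full effect; nearly all actives have a fitted effect of over 40% in size; top concentration of the series not given in the record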
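Cysteine protease activity tested under reducing, mildly acidic conditions (100 mM sodium acetate pH 5.5, 5 mM DTT) plus 0.01% Triton X-100. Cruzain 1.5 nM; substrate Z-FR-AMC 2 uM; 15 min compound preincubation at room temperature.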
2A StopGo: lowers the luciferase signal of an FMDV 2A StopGo reporter. human cells with a luciferase reporter of 2A StopGo recoding; control for the full effect not named in the record. Potency, µM (doses to about 57.9 µM), inactives show at the top dose signal change, negative = less light. 1.2% of 410,000 active. AID 1159524; active = well fitted falling curve with a large enough effect; inconclusive = small, poorly fitted or top-dose-only effect; inactive = no such curve, though single readings can be large or run the other way; tested in HEK293T cells; further: on the % scale 0 is the no-effect control and ±100 the full control effect; nearly all actives have a fitted effect of over 45% in size; luciferase light after 4 h
SARS PLP yeast: inhibitors of SARS-CoV papain-like protease in yeast; Potency, µM (doses to about 32.9 µM), for inactives: top-dose activity, positive = growth rescue; 0.19% of 330,000 active; S. cerevisiae expressing SARS-CoV PLpro, growth rescue; control for the full effect not named in the record; further: 0% is about no effect; nearly all actives have a fitted effect of over 55% in size; growth read by luminescence after 48 h
Lassa entry inh: inhibitors of Lassa virus binding or cell entry; Lassa virus pseudotype entry inhibition, cell reporter; control for the full effect not named in the record; Potency, µM (series often up to 37.9 µM), for the others: top-dose activity change, negative = inhibition, most hits filed as inhibitors; 1.2% of 300,000 active; active means well fitted inhibition curve with a large enough effect; inconclusive means small, poorly fitted or top-dose-only effect, or effect the other way; inactive means flat fitted curve, though single readings scatter; tested in HEK293 cells; further: on the % scale 0 is the no-effect control and ±100 the full control effect; nearly all actives have a fitted effect of over 50% in size; luciferase read-out
Marburg entry inh: inhibitors of Marburg virus binding or cell entry. Marburg virus pseudotyped entry inhibition, cell reporter; control for the full effect not named in the record; about a third of the inactives were read at about 46 µM. Potency, µM (series often up to 37.8 µM), for inactives: at the highest dose activity change, negative = inhibition, actives largely listed as inhibitors. 1.8% of 300,000 active; active = well fitted inhibition curve with a large enough effect; inconclusive = small, poorly fitted or top-dose-only effect, or effect the other way; inactive = flat fitted curve, though single readings scatter; tested in HEK293 cells; about a fifth of its hits are not listed in these tables; further: on the % scale 0 is the no-effect control and ±100 the full control effect; luciferase read-out
Starred values were filed as active, the others as inactive; ? = inconclusive; / = not tested or not shown; & = joins results of further samples; [ ] = dose if it differs, or a comment. Unless noted, the call rests on the fitted dose curve; in most records, active means well fitted rising curve with a large enough effect; inconclusive means small, poorly fitted or top-dose-only effect; inactive means no such curve, though single readings can be large or run the other way. Potency means the concentration at half of the fitted maximal effect. Compounds as they come. Share with any hit: about 4.7%.

SMILES | NS1 function inh | Cruzain noTriton | RE007 growth inh | Cruzain inh Det | 2A StopGo | SARS PLP yeast | Lassa entry inh | Marburg entry inh
O=c1c2ccccc2nc(/C=C/c2ccc(F)cc2)n1-c1ccccc1O | -12% | / | -4% | / | -11% | 0% | ? | ?
CC(=O)Nc1cccc(-c2csc(Nc3ccc(Cl)cn3)n2)c1 | 10% | / | ? | / | 5% | -2% | / | /
N#Cc1ccc(S(=O)(=O)NCCc2ccncc2)cc1 | / | / | 5% | / | 44%[activator] | / | 9%[46.1 µM] | 16%[46.1 µM]
FC(F)(F)c1ccc(Cl)c(N/N=C/c2ccc(N3CCOCC3)s2)c1 | ? | 10µM* | 4% | -10% | -21% | -22% | -14% | 2%
COc1cc(C2CC(=O)Nc3n[nH]c(-c4ccccc4)c32)cc(OC)c1OC (configuration not stated) | -12% | / | 10% | / | -2% | 2% | / | /
COc1cc(NC(=O)CN2C(=O)COc3ccccc32)cc(OC)c1 | / | / | 5% | / | -17% | / | 19%[46.1 µM] | 6%[46.1 µM]
Cc1cccc(N(CC(=O)Nc2ccccc2C(F)(F)F)S(=O)(=O)c2ccccc2)c1C | / | -2% | / | -4.8% | -1% | / | ? | ?
Cc1ccccc1OCC(=O)NC(=S)Nc1ccccc1N1CCN(S(C)(=O)=O)CC1 | 5% | / | 7% | / | ? | 0% | ? | ?
O=C(Oc1ccc(Oc2ccccc2)cc1)N1CCC(O)CC1 | -10% | / | -13% | / | 38%[activator] | -2% | 5% | -2%
O=C(CCS(=O)(=O)c1ccccc1)Nc1ccc(-c2nc3ccccc3s2)cc1 | 8% | ? | -16% | -2.1% | 16% | 14% | ? | 14µM*
Cc1c(OCc2ccc([N+](=O)[O-])cc2)ccc2c3c(c(=O)oc12)CCC3 | 14% | -19% | -4% | -0.7% | 66%[activator] | -7% | ? | ?
CCOc1ccc(/C=N/NC(=O)c2c(-c3ccccc3)noc2C)cc1 | 18% | -3% | -9% | -5.8% | -24% | 5% | ? | ?
CCCCCNCc1ccc(Br)cc1 | -19% | -7% | 11% | 4.8% | / | 4% | 19% | ?
COc1ccc(CCNC(=O)Cn2ncc3c(=O)oc4ccccc4c32)c(OC)c1 | / | -6% | / | 0.3% | -19% | / | -26%[46.1 µM] | 2%[46.1 µM]
Cc1onc(-c2c(F)cccc2Cl)c1C(=O)N=C(N)N1CC(C)OC(C)C1 (configuration not stated) | 3% | / | 4% | / | -23% | 1% | 2% | ?
Cc1ccccc1CN1C[C@@H]2C[C@@H](c3cn[nH]c3-c3ccc(F)cc3)N3CCC[C@@]23C1=O | -3% | / | -22% | / | 15% | 0% | ? | ?
Cc1cc(NC(=O)c2ccc(F)cc2)n(CCOC(=O)c2ccc(F)cc2)n1 | 0% | -1% | 14% | -4.2% | ? | 20% | -13% | ?
O=C(N/N=C/c1ccncc1)c1cccc(NC(=O)c2ccc(Cl)cc2)c1 | 5% | -13% | 0% | 28µM* | -4% | -16% | / | /
O=C(c1ccc2c(c1)OCO2)c1cn(Cc2ccc(Cl)cc2)c2ccc(F)cc2c1=O | / | 25µM* | / | -2.7% | -24% | / | -7%[46.1 µM] | ?
O=C(N/N=C/c1ccc(Sc2nc3ccccc3s2)c([N+](=O)[O-])c1)c1ccccn1 | 10% | -21% | 3% | -4.1% | 11% | 1% | -9% | 9%
CCOc1ccc(C(=O)CCC(=O)NNC(=O)CCN2CCN(c3ccccc3)CC2)cc1 | / | / | 5% | / | -1% | -1% | 21% | 4%
Cc1occc1C(=O)N1CCN(c2ccc([N+](=O)[O-])cc2)CC1 | 3% | / | -13% | / | -29% | 10% | / | /
CCOc1ccc(S(=O)(=O)N2CCC(N3CCN(Cc4ccc(F)cc4)C(=O)C3=O)CC2)cc1 | / | -4% | / | 2.7% | -5% | / | -6%[46.1 µM] | /
NC(=O)C(=O)N/N=C1\CCc2ccccc21 | / | / | 2% | / | 0% | 0% | 12% | ?
N=C1C(c2ccc(Br)cc2)=C(O)C2CCc3ccccc3N12 (configuration not stated) | -65% | -5% | 12% | 3.1% | / | -12% | -1% | -5%
NC(=O)N/N=C/c1ccc(OCc2cccc(Cl)c2)cc1 | -47% | / | 3% | / | 28% | -2% | -13% | -8%[46.1 µM]
O=C(NCc1ccccc1Cl)c1ccc(S(=O)(=O)NCc2ccco2)cc1 | / | / | 9% | / | 3% | 0% | 1% | ?
COc1ccc(C(=O)Nc2cccc3c2CCCC3)c(OC)c1 | / | / | -2% | / | 30% | / | -1% | 5%[46.1 µM]
Cc1nnsc1C(=O)NC1CCCc2c1cnn2-c1ccc(F)cc1F (configuration not stated) | 0% | / | 9% | / | ? | -10% | ? | ?
O=[N+]([O-])c1cc(C(F)(F)F)ccc1NCCc1c[nH]c2ccc(O)cc12 | 7% | 1% | -17% | -13% | ? | -20% | -5% | 1%
COC(=O)CN(c1nc(C)cc(OC)n1)S(=O)(=O)c1ccc(C)cc1 | -16% | 4% | -27% | -0.5% | -27% | 6% | 8% | -10%
COc1ccc(CN2CCN(S(=O)(=O)c3ccccc3)CC2)cc1Br | -11% | -2% | 0% | -6.2% | -8% | 10% | -1% | ?
Cc1nc2ncnn2c(C)c1CCC(=O)N1CCN(c2ccccn2)CC1 | 2% | -4% | -7% | 6.2% | 11% | 4% | 1% | 2%
CCN(CC(=O)Nc1c(F)cccc1F)C(=O)CCc1nc2ccccc2c(=O)[nH]1 | / | / | -10% | / | -7% | -6% | -1% | 8%[46.1 µM]
Nc1cc(=O)[nH]c(SCc2nc3ccccc3n2Cc2ccccc2)n1 | -3% | ? | -6% | -3.0% | / | -4% | 0% | -8%
COC(=O)/C=C1/SC(=NC(=O)c2ccc(F)cc2)NC1=O | 11% | / | 2% | / | 40µM* | 1% | -13% | 14%[46.1 µM]
Cc1nn(CC#N)c(=O)n1-c1ccc(F)cc1 | 4% | 6% | -8% | 4.0% | -13% | 5% | 13% | 16%
Cc1nc2ncnn2c(N2CCCC(C(=O)Nc3ccccc3Br)C2)c1C (configuration not stated) | / | / | -6% | / | ? | 2% | ? | -18%[46.1 µM]
CCOc1ccc(-c2nnc(SCC(=O)NCc3ccc(C)cc3)nc2-c2ccc(OCC)cc2)cc1 | / | -11% | / | 0.5% | -8% | / | ? | /
Cc1ccc(N2CC(C(=O)NCCN3CCOCC3)CC2=O)cc1C (configuration not stated) | 2% | / | -1% | / | -24% | -4% | 8%[46.1 µM] | 2%[46.1 µM]
Clc1ccc2nc(CSc3nnc4ccccn34)cn2c1 | -6% | -1% | 1% | 2.6% | 0% | 8% | ? | ?
Cc1ccccc1C(C(=O)NC1CCCCC1)N(C(=O)c1ccccn1)c1cccnc1 (configuration not stated) | -4% | / | -4% | / | 2% | 1% | ? | -17%[46.1 µM]
CC(C)(C)c1ccc(NS(=O)(=O)c2ccc(N)cc2)cc1 | -9%&-3% | 1% | 7% | -1.5% | 27% | 0% | ? | ?
Cc1ccc(C(=O)N=c2sccn2C)cc1S(=O)(=O)N1CCOCC1 | / | / | -5% | / | 20% | 0% | 14% | -9%
CCOc1ccccc1C(=O)Nc1nnc(SCC(=O)Nc2cc(C)on2)s1 | 2% | / | 3% | / | 17% | 0% | -12% | 14%
Cc1cccc(-n2c(C)n[nH]c2=S)c1 | 14% | 3% | -4% | 2.7% | / | -4% | 18% | -1%
O=C(CSc1ncn[nH]1)NCCCc1ccccc1 | ? | 4% | -5% | 1.8% | -2% | 2% | -2% | -13%[46.1 µM]
CC1Cc2ccccc2N1Cc1nc2scc(-c3cccs3)c2c(=O)[nH]1 (configuration not stated) | 10% | 16µM* | 10% | -4.4% | -23% | 12% | 1% | 19%
COc1cc2c(C(=O)NC3CCCCCC3)cn(C)c(=O)c2cc1OC | 4% | -2% | -8% | 1.1% | -10% | -2% | -3% | 3%[46.1 µM]
COc1ccc(C2=NO[C@@H]3C(=O)N(Cc4ccccc4)C(=O)[C@H]23)c(OC)c1 | -8% | / | -10% | / | -9% | 0% | 16%[46.1 µM] | ?
The results go on:
SMILES | NS1 function inh | Cruzain noTriton | RE007 growth inh | Cruzain inh Det | 2A StopGo | SARS PLP yeast | Lassa entry inh | Marburg entry inh
OC(CNCc1ccco1)Cn1c2ccc(Br)cc2c2cc(Br)ccc21 (configuration not stated) | 7% | ? | -25% | -14% | / | -7% | 7% | ?
Cc1ccc(S(=O)(=O)Nc2c(C)n(C)n(-c3ccccc3)c2=O)c(C)c1 | 4% | / | -2% | / | 1% | 5% | -17% | -1%
COc1ccc(CNC(=O)C2CCN(S(=O)(=O)c3ccc(-c4nn[nH]n4)cc3)CC2)cc1 | -2% | -8% | -5% | -4.6% | 1% | 7% | 1% | 8%&8%
CCOC(=O)c1ccc(NC(=O)c2cc(C)nc3ccccc23)cc1 | ? | / | 4% | / | -19% | 3% | ? | -18%
CC(CCc1ccccc1)NC(=O)Cn1ncc2c3ccccc3n(Cc3cccc(Cl)c3)c2c1=O (configuration not stated) | / | 1% | / | -5.7% | 3% | / | -5%[46.1 µM] | 2%[46.1 µM]
Cc1snc(SCC(=O)c2ccc(F)cc2)c1C#N | / | / | 15% | / | 0% | -7% | 14% | -2%[46.1 µM]
CCNc1c(NC(=O)c2cc(OCC)c(OCC)c(OCC)c2)c(=O)oc2ccccc12 | / | 6% | / | -1.2% | -15% | / | -10%[46.1 µM] | 2%[46.1 µM]
Cn1cccc1/C=N/NC(=O)c1sc2cc(Cl)ccc2c1Cl | 12% | ? | / | -0.1% | / | -6% | / | /
O=C(CSc1cn(CC(=O)N2CCOCC2)c2ccccc12)Nc1ccccc1F | / | 0% | / | -2.2% | 7% | / | 18%[46.1 µM] | /
O=C(Nc1c(F)cccc1F)C1CCN(C(=O)c2cccs2)CC1 | -4% | / | -12% | / | -8% | 2% | 15%[46.1 µM] | 3%[46.1 µM]
COc1ccc(N2C(=O)CSC23C(=O)N(Cc2cccc(F)c2)c2ccccc23)cc1Cl (configuration not stated) | / | ? | / | -6.5% | ? | / | 11%[46.1 µM] | /
